Screening results (PubChem)
PKD1 inh: PKD1 (human) kinase inhibition | Q15139 | PKD1 kinase fluorescence polarization assay | inhibition, %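 (about 10 µM by stock and volumes)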 | actives 0.056% (n = 200,000);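 active = inhibition of 50% or more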;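 also: controls were vehicle for no effect and a reference inhibitor for full effect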
GALR2 ag: agonists of human galanin receptor 2 (GALR2) | O43603 | GALR2-expressing cells, agonist activation read-out | activation, %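 (tested at 5 µM)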 | actives 0.48% (n = 140,000);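 active = above mean plus 3 SD of all compounds, about 5% in these data, not always enough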;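 also: 0% = vehicle buffer wells and 100% = reference agonist at full effect; tested in CHO reporter cells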
Target sequence (O43603 whole entry, looked up): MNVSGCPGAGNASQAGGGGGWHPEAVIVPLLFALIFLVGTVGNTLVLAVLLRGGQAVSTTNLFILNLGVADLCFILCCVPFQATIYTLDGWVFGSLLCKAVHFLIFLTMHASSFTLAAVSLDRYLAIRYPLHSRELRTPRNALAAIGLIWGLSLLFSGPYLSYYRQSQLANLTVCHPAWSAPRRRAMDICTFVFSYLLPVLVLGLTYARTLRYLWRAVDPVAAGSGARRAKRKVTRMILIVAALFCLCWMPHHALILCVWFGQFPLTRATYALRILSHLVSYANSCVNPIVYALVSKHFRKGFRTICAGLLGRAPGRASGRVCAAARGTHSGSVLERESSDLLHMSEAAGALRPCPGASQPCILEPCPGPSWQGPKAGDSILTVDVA
RGS16-Gao: modulates binding between human RGS16 and Galphao; O15492+P09471; bead-based flow cytometry RGS16-Galphao binding, fluorescence; actives lie on both sides; binding response (% of control), % at 10 µM; actives 0.38% (n = 220,000);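 active = below 25% or above 175%, edge rows of some plates excepted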;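 also: Galphao activated by GDP with aluminum fluoride before binding; 100% = wells without compound and 0% = beads without RGS; some results beyond the cut were filed as inactive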
Target sequence (O15492 whole entry, looked up): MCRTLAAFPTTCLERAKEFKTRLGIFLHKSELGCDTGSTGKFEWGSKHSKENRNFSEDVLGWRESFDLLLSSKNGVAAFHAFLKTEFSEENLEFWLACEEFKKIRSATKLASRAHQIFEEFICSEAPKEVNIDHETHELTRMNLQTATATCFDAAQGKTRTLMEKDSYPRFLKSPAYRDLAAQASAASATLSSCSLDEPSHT
Target sequence (P09471 whole entry, looked up): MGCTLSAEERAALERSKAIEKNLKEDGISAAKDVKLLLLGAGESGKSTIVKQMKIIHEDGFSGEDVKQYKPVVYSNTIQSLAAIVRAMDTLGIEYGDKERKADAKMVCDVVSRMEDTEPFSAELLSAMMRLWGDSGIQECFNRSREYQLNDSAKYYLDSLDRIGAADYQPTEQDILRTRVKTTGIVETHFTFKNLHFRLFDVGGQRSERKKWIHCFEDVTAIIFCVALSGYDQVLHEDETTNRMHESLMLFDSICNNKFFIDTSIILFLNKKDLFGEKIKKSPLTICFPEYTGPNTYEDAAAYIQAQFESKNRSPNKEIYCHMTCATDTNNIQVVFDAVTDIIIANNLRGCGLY
HSV replic up: increases HSV replication in cells; HSV replication augmentation in cells, fold increase; maximum fold increase; actives 0.005% (n = 220,000); AID 1956;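 active = peak rise of 1.5-fold or more in the series; inconclusive = self-fluorescent or not available for retest; tested in PC3 cells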;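 also: first round at 10 µM; read as green reporter fluorescence; hits show the peak of a series up to 25 µM; 1 = signal of infected wells without compound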
Insulin prom inh: TRM-6 insulin promoter activity inhibition; TRM-6 cells (human fetal islet line), insulin promoter-eGFP reporter, imaging; reporter expression induced with tamoxifen; inhibition, % at 2 µM; actives 0.9% (n = 130,000); AID 1273;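 active = inhibition above the mean plus 3 SD, with well images judged a real hit on visual review, cut at about 60% in these data, passing the limit was not always enough; inconclusive = inhibition over the cutoff but images rejected on review; inactive = inhibition not above the cutoff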
Insulin prom inh cell count: second read-out of Insulin prom inh, no call of its own (marks repeat the call); normalized cell count, %; measured here: cell count, toxicity; reference of the scale not given here;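 cells exposed to compound for 48 h; stained nuclei by imaging scaled within each plate; lower means fewer cells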
HSV replic up primary fold: also measured in HSV replic up; calls as there; fold increase; compound at 10 µM; measured here: primary screen fold increase 10 uM; tested in PC3 cells;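 GFP signal in the first replicate; 1 = infected wells without compound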
* hit, by the source's call; i = inactive; u = inconclusive; x = no result given.

Every second line gives: PKD1 inh | GALR2 ag | RGS16-Gao | HSV replic up | HSV replic up primary fold | Insulin prom inh | Insulin prom inh cell count
1: COC(=O)c1cc(OC)c(OC)cc1NC(=O)c1c(C)noc1C
→ -6 | -1.5 | x | x | x | -38 | 91
2: CCOC(=O)c1nnc2c(Br)c(-c3ccccc3)nn2c1C
→ -3 | 0.1 | 107 | i | 0.86 | 14 | 112
3: O=c1oc2cc(Oc3ccc(C(F)(F)F)cc3[N+](=O)[O-])ccc2c2c1CCC2
→ -6 | -0.7 | 97 | i | 0.98 | 2 | 130
4: Cc1ccc(OCCOCCn2ccnc2)c(Br)c1
→ 2 | -0.3 | 138 | i | 0.94 | 10 | 128
5: Cn1c(Cc2cccc3ccccc23)nnc1SCC(=O)N1CCN(c2ccccc2)CC1
→ -21 | -2.5 | 44 | i | 1.1 | -67 | 87
6: O=S(=O)(NCc1ccccc1)c1ccc(Br)c2nsnc12
→ x | x | 98 | i | 0.82 | x | x
7: Cc1noc(C)c1COc1ccc(C(=O)OCC(=O)NCc2ccccc2Cl)cc1
→ 1 | -1.2 | 104 | i | 0.88 | x | x
8: Cc1cc(C)c2nc(N3CCC(C(=O)N4CCN(c5ncccn5)CC4)CC3)sc2c1
→ -5 | -0.9 | 106 | i | 0.79 | x | x
9: Cc1cccc(CNc2ccc(C(CC(N)=O)NC(=O)Cc3cccc4ccccc34)cc2[N+](=O)[O-])c1 (centres undefined)
→ x | x | 109 | i | 0.82 | x | x
10: CCc1ccc(C2=NN(CCC(=O)NC3CC3)C(=O)CC2)cc1
→ 12 | 0.2 | 101 | i | 1 | -3 | 124

Compound profiles, from the list above:
Cc1ccc(OCCOCCn2ccnc2)c(Br)c1 as listed: PKD1 inh: 2; GALR2 ag: -0.3; RGS16-Gao: 138; HSV replic up: i; HSV replic up primary fold: 0.94; Insulin prom inh: 10; Insulin prom inh cell count: 128
Cc1noc(C)c1COc1ccc(C(=O)OCC(=O)NCc2ccccc2Cl)cc1 as listed: PKD1 inh: 1; GALR2 ag: -1.2; RGS16-Gao: 104; HSV replic up: i; HSV replic up primary fold: 0.88; Insulin prom inh: x; Insulin prom inh cell count: x

Going on with the list.
Every second line gives: PKD1 inh | GALR2 ag | RGS16-Gao | HSV replic up | HSV replic up primary fold | Insulin prom inh | Insulin prom inh cell count
11: CSc1nnc(C(C)(C)C)c(=O)n1/N=C/c1ccccc1O
→ x | x | 102 | i | 1.1 | x | x
12: Cc1nn(C)c(-c2n[nH]c(=S)n2Cc2ccco2)c1Cl
→ -10 | -0.3 | -18 | i | 1.1 | 0 | 67
13: CS(=O)(=O)N(CC(=O)NCc1cccnc1)Cc1ccc(Cl)cc1
→ 1 | 0.7 | 39 | i | 1.2 | 5 | 178
14: Cc1ccccc1NC(=O)c1cc(S(=O)(=O)N2CCOCC2)ccc1F
→ -13 | -0.2 | 110 | i | 0.98 | x | x
15: Cc1ccc(S(=O)(=O)NCCCC(=O)C=[N+]=[N-])cc1
→ -13 | -1.0 | 60 | i | 1 | -3 | 52
16: COc1ccc(CN(CCC(c2ccc(F)cc2)C2CCOC(C)(C)C2)C(=O)c2ccco2)cc1 (centres undefined)
→ 9 | 0.0 | 30 | i | 0.83 | 21 | 50
17: COC(=O)C(Cc1ccccc1)NC(=O)CNS(=O)(=O)c1ccc(Br)cc1 (centres undefined)
→ 6 | x | 102 | i | 0.96 | -150 | 69
18: COc1cccc(NC(=O)COC(=O)c2c(F)cccc2F)c1
→ -5 | -0.9 | 94 | i | 0.89 | -57 | 75
19: COc1cc(CNCCCN2CCOCC2)ccc1OCC(=O)Nc1cccc(C(F)(F)F)c1
→ 6 | -1.8 | 94 | i | 0.93 | -31 | 66
20: Cc1cccc(NC(=O)CCN2C(=O)C3C4CCC(C4)C3C2=O)c1C (centres undefined)
→ 8 | -3.2 | 100 | i | 0.94 | x | x
21: OCCNCCCCCOc1ccc(F)cc1
→ 0 | -0.6 | 100 | i | 0.91 | -13 | 63
22: CCCC(=O)c1c(NC)cc(C)oc1=O
→ -6 | 0.3 | 91 | i | 1.1 | x | x
23: COCCCNCC(=O)c1c(N)n(Cc2ccccc2)c(=O)n(C)c1=O
→ 5 | -2.3 | 98 | i | 0.71 | 2 | 111
24: CCOC(=O)C1=C(O)C(=O)N(Cc2ccc(C(C)(C)C)cc2)CC1
→ 2 | x | 101 | i | 1.1 | x | x
25: CC(=O)Nc1ccc2nc(CN3CCC(CO)(CCc4ccccc4)CC3)ccc2c1
→ x | x | 104 | i | 0.97 | x | x
26: COC(=O)CCN(C(=O)c1ccc([N+](=O)[O-])cc1)c1ccccn1
→ x | x | 103 | i | 0.97 | x | x
27: CN(C)CCCN(C(=O)c1cccs1)c1nc2cc3c(cc2s1)OCO3
→ 12 | x | 99 | i | 0.9 | 43 | 105
28: CC(CN1C(C)CCCC1C)OC(=O)c1ccc(Cl)cc1Cl (centres undefined)
→ -3 | x | 103 | i | 1 | x | x
29: Cc1ccc(NC(=O)Cn2c(-c3ccc(F)cc3)cnc2SCC(=O)Nc2c(C)cccc2C)cc1
→ -9 | 2.7 | 104 | i | 0.82 | 37 | 114
30: O=C1c2sc3nc4c(c(=O)n3c2C(=O)N1c1ccccc1)CCC4
→ -6 | -1.9 | 98 | i | 0.9 | -9 | 105
31: CC(=O)Nc1cccc(-c2csc(Nc3ncccn3)n2)c1
→ 1 | x | 66 | i | 0.7 | 27 | 85
32: Cc1ccc(NS(=O)(=O)c2cc(C(=O)N3CCCC3)ccc2C)cc1C
→ -8 | x | 97 | i | 0.84 | 29 | 81
33: Cc1ccc(NC(=O)c2cc(-c3cccs3)nc3ccccc23)nc1
→ x | x | 103 | i | 0.9 | x | x
34: Cc1ccc(-n2ncc(N(C)C)c(Cl)c2=O)cc1
→ 0 | -1.2 | 107 | x | x | -50 | 110
35: COC(=O)C1=C(C)NC(C)=C(C(=O)OCCN(C)Cc2ccccc2)C1c1cccc([N+](=O)[O-])c1 (centres undefined)
→ -7 | 0.3 | 104 | i | 0.77 | 23 | 136
36: O=C(CC1CCCCC1)Nc1ncn[nH]1
→ -5 | -4.9 | 91 | i | 0.95 | 19 | 53
37: O=c1nc2ccccc2c2n1CC(CN1CCN(c3cccc(Cl)c3)CC1)N2 (centres undefined)
→ 0 | -1.7 | 104 | i | 0.97 | 17 | 129
38: CCCCCOc1ccccc1C(=O)NCCCC(=O)O
→ 0 | -1.6 | 105 | i | 0.95 | 3 | 58
39: CC(C)Nc1nc(NC(C)C)nc(Oc2ccc(/C=N/O)cc2)n1
→ 7 | -0.3 | 110 | i | 0.81 | 44 | 106
40: CCc1nnc(NS(=O)(=O)c2ccc(N=CC3=C(O)CC(C)(C)CC3=O)cc2)s1
→ 3 | x | 100 | i | 0.84 | x | x
41: CC(C)(C)OC(=O)N1CCCN(C(=O)Nc2cccc(Cl)c2)CC1
→ x | x | 100 | i | 1 | x | x
42: CC(=O)NC(CCS(C)(=O)=O)C(=O)Nc1cccc2ccccc12 (centres undefined)
→ -4 | -1.9 | 111 | i | 1.1 | x | x
43: Cc1ccc(C(=O)Nc2ccnc(-c3ccncc3)n2)cc1
→ -4 | x | 101 | i | 0.84 | x | x
44: C=C(C)c1nc2cc(OC)c(OC)cc2c(=O)o1
→ -5 | -0.4 | 105 | i | 0.98 | -28 | 54
45: Cc1cccc(C(=O)NC2CCN(CC(=O)N3CCOCC3)CC2)c1
→ -9 | -0.7 | 93 | i | 0.84 | x | x
46: CCOC(=O)C(NC(=O)c1ccccc1)(OCc1ccc(F)cc1)C(F)(F)F (centres undefined)
→ 0 | -2.7 | 105 | i | 0.99 | -6 | 105
47: CN1C(=O)/C(=C/C=C2\SCCN2C)SC1=S
→ -9 | -1.0 | 102 | u | x | -40 | 217
48: COc1ccc(-c2nnn(CC(=O)N(CCCN3CCOCC3)C(C(=O)NC3CCCC3)c3ccco3)n2)cc1 (centres undefined)
→ -4 | x | 100 | i | 1.1 | x | x
49: O=C(NCc1ccc2c(c1)OCO2)c1cccs1
→ 0 | -2.0 | 98 | i | 0.98 | x | x
50: COCC(C)NC(=O)CSc1nc2nn(-c3ccccc3)c(=O)c-2c2n1CCCCC2 (centres undefined)
→ -8 | x | 101 | i | 1 | x | x
51: CC(NC(=O)CSc1cccc(C(F)(F)F)c1)c1ccccc1 (centres undefined)
→ 1 | -0.2 | 103 | i | 0.91 | -46 | 118
52: CCc1ccccc1N(CC)C(=O)c1cn(CC)c(=O)c2cc(OC)c(OC)cc12
→ -6 | -2.1 | 102 | i | 0.86 | x | x
53: Cc1cc(N2C(=O)C(O)=C(C(=O)c3cccs3)C2c2ccc(F)cc2)no1 (centres undefined)
→ x | x | 102 | i | 1 | x | x
54: O=C(CNC(=O)c1ccncc1)N/N=C/c1ccccn1
→ -7 | x | 95 | i | 0.98 | x | x
55: CCOC(=O)C1C(=O)NC(c2ccccc2)=NC1c1ccc(OC)cc1 (centres undefined)
→ -4 | x | 101 | i | 0.94 | -54 | 182
56: O=C(CSc1nnc2ccc(-c3ccncc3)nn12)N1CCCCC1
→ -5 | x | 103 | i | 1 | x | x
57: COc1cc(/C=C/C(=O)O)ccc1OCc1cnc(Cl)s1
→ -2 | x | 99 | i | 0.79 | 0 | 108
58: CCCCNC(=O)n1c(=O)oc2ccc(Cl)cc21
→ 31 | -2.4 | 104 | i | 0.97 | 66 | 56
59: Cc1ccc(S(=O)(=O)NCC(=O)N(CC(=O)NCc2ccccc2)CC2CCCO2)cc1 (centres undefined)
→ -3 | -0.8 | 103 | i | 0.93 | -32 | 155
60: CCOC(=O)c1sc(NC(=O)CSc2nnc(Cc3ccccc3)o2)c(C(=O)OCC)c1C
→ 3 | -1.7 | 72 | i | 1.1 | 40 | 122

(list continues)
Every second line gives: PKD1 inh | GALR2 ag | RGS16-Gao | HSV replic up | HSV replic up primary fold | Insulin prom inh | Insulin prom inh cell count
61: Cn1cccc/c1=N\c1cccc[n+]1C
→ x | x | 102 | i | 1.1 | x | x
62: Cn1c(=O)c2c(ncn2CC(O)CNc2ccc(Br)cc2)n(C)c1=O (centres undefined)
→ -1 | 0.5 | 98 | i | 1 | -47 | 81
63: Cc1cc(C)c(-c2cc(NC(=O)COC(=O)c3ccc(CO)cc3)n(-c3ccccc3)n2)cc1C
→ 1 | -0.4 | 106 | i | 0.96 | -8 | 132
64: CC(=O)c1cnc(-c2ccccc2Cl)s1
→ 0 | x | 101 | i | 0.9 | 77* | 93*
65: c1cncc(CSc2nnc3ccc(-c4cccs4)nn23)c1
→ -2 | x | 106 | i | 0.84 | x | x
66: CCCS(=O)(=O)N1CCCC(C(=O)c2cccc(Cl)c2)C1 (centres undefined)
→ 2 | x | 107 | i | 1 | x | x
67: Cc1cccc(C)c1-n1c(C)nn(Cc2ccc([N+](=O)[O-])cc2)c1=O
→ 2 | x | 99 | i | 1 | 30 | 105
68: CCOC(=O)Cc1c(C)nc2c(-c3cccc(Br)c3)cnn2c1C
→ -9 | -0.6 | 117 | i | 0.97 | x | x
69: S=c1nc(-c2ccc(Br)cc2)[nH]c2ccccc12
→ x | x | 102 | i | 0.99 | x | x
70: CCn1cc(C(=O)N2CCN(C(=O)c3ccco3)CC2)c2cc(OC)c(OC)cc2c1=O
→ -2 | 0.8 | 96 | i | 1 | 6 | 161
71: O=c1/c(=C/c2ccco2)sc2nc(-c3ccccc3Br)nn12
→ -1 | -0.6 | 99 | i | 0.96 | x | x
72: COc1ccccc1NC(=O)N1CCc2c([nH]c3ccccc23)C1C(F)(F)F (centres undefined)
→ x | x | 100 | i | 1 | x | x
73: CC1(C)Cc2c(C#N)c(NCCN3CCOCC3)nc(-c3ccco3)c2CO1
→ 2 | -2.2 | 101 | i | 0.63 | -50 | 69
74: C=CCc1ccccc1OCC(O)CN(C(C)C)C(C)C (centres undefined)
→ -17 | -1.5 | 103 | i | 0.85 | x | x
75: Cc1ccc(Nc2nc(N)nc(CN3CCN(c4ccccc4F)CC3)n2)cc1
→ 1 | -0.6 | 99 | i | 0.89 | x | x
76: CCC(=O)N1CCN(C(=O)CC)C1c1ccccc1
→ -7 | 0.5 | 101 | i | 0.95 | -27 | 122
77: Cc1cc(C)n2cc(CSC3=NCCS3)nc2n1
→ -6 | -0.7 | 90 | i | 0.97 | -10 | 120
78: CS(=O)(=O)N1CCN(CC2CC3C=CC2C3)CC1 (centres undefined)
→ 3 | 0.4 | 102 | i | 0.82 | 13 | 91
79: CCOC(=O)c1cc(C(=O)OCC)c(=O)[nH]c1N1CCCCC1
→ -1 | x | 91 | i | 0.76 | x | x
80: Cc1cc(C)cc(NC(=S)/C(=C(\[O-])c2ccc(Cl)cc2Cl)[n+]2ccccc2)c1
→ -7 | x | 109 | i | 0.92 | -25 | 103
81: CCN1CCc2c(sc(NC(=O)CN3C(=O)c4ccccc4C3=O)c2C(N)=O)C1
→ -6 | x | 110 | i | 0.97 | -37 | 119
82: C/C(O)=C(\N=Nc1cc(C)ccc1O)C(N)=O
→ -3 | x | 98 | i | 1 | x | x
